PV pol inh = inhibitors of poliovirus RNA polymerase binding and polymerization. P03300. % elongation, % (compound at 16.7 µg/mL). 0.66% of 150,000 active. poliovirus polymerase elongation, fluorescence polarization; stronger effect = lower value; in the data active means % elongation below about 90%; further: some results filed as inactive read as strong as hits
Target sequence (P03300 1749-2209 limits assumed): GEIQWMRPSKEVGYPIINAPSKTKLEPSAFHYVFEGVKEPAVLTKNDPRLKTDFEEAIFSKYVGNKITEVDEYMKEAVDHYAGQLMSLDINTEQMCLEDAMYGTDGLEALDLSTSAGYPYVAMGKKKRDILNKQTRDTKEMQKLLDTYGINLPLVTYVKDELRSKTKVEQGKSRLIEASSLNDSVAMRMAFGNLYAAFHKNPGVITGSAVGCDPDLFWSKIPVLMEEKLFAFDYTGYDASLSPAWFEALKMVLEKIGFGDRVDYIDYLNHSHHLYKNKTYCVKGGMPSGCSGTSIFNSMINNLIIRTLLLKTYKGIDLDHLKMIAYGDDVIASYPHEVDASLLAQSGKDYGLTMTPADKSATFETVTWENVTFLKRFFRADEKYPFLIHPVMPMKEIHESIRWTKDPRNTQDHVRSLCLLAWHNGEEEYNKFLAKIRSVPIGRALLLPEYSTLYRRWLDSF
PV pol inh intensity = second read-out of PV pol inh, no call of its own (marks repeat the call); % elongation; measured here: total intensity read-out; formula for this scale not given here;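 total fluorescence in place of polarization; lower means less elongation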
Numbers without * were called inactive. Some of the compounds tested (hit frequency here may not be typical).

SMILES | PV pol inh | PV pol inh intensity
CC1=C(C(=O)Nc2ccc(C)cc2C)C(c2ccc([N+](=O)[O-])cc2)n2ncc(C(=O)Nc3ccc(F)cc3)c2N1 (stereo not given) | 107 | 107
CCc1ccccc1NC(=O)N(C)CCc1c(C)nn(C)c1C | 104 | 97
COc1ccccc1OCCCCn1c(-c2ccc(Cl)cc2)nc2ccccc2c1=O | 103 | 105
CCc1ccc(Cc2cnc(NC(=O)c3ccc4c(c3)CC(c3ccccc3)OC4=O)s2)cc1 (stereo not given) | 102 | 107
COc1ccc(Cn2cc(S(=O)(=O)c3ccc(C)cc3)c(=O)c3cc(F)ccc32)cc1 | 101 | 105
Cc1nc2scc(C)n2c(=O)c1S(=O)(=O)N1CCN(c2cccc(C(F)(F)F)c2)CC1 | 104 | 107
COc1ccc(CN2COc3ccc4c(oc(=O)c5ccccc54)c3C2)cc1OC | 100 | 104
COc1ccccc1CNC(=O)c1cc2c(-c3ccc(Cl)cc3)nn(C)c2s1 | 102 | 99
COc1ccc(CCNC(=O)C(C)n2nc(C)c3sc4ccccc4c3c2=O)cc1OC (stereo not given) | 111 | 101
O=C(Nc1ccc(F)cc1F)c1cc2nc(-c3ccco3)cc(C(F)(F)Cl)n2n1 | 103 | 97
COc1ccc(NC(=O)c2nn(C)c3c2CS(=O)(=O)c2ccccc2-3)cc1Cl | 104 | 103
O=C(Cn1cc(S(=O)(=O)Cc2ccccc2F)c2ccccc21)Nc1ccc(F)c(Cl)c1 | 108 | 114
Cc1c(-c2ccc(Cl)cc2)c(=O)oc2c(CN3CCOCC3)c(O)ccc12 | 106 | 106
Cn1c(=O)n(CCCc2ccccc2)c(=O)c2c1nc1n2CCN1c1ccc(F)cc1 | 107 | 112
COC(=O)c1cc2oc3ccccc3c2n1Cc1ccccc1Cl | 111 | 112
O=C(CSC1=Nc2ccccc2C2=NC(Cc3ccccc3)C(=O)N12)Nc1ccccc1C(F)(F)F (stereo not given) | 110 | 106
CCc1cccc(NC(=O)CCNS(=O)(=O)c2cccc3nonc23)c1 | 104 | 102
COc1ccc2c(c1)c1c(c(=O)n(Cc3ccccc3)c(=O)n1Cc1ccccc1)n2C | 108 | 111
COc1ccc(CNC(=O)C2=CC(c3cccc(OC)c3)=NS(=O)(=O)N2C)cc1 | 107 | 104
CCCC(=O)Nc1nc2c(s1)CC(C(C)(C)C)CC2 (stereo not given) | 105 | 105
CCCCNc1nc2ccccc2c2nc(-c3ccccc3)nn12 | 109 | 108
Cc1ccc(CNC(=O)C2(c3cccs3)CCOCC2)cc1 | 103 | 101
CC(C)OCCCNC(=O)c1ccc2c(c1)NC(=O)c1ccccc1S2 | 107 | 112
CC(NC(=O)Cn1c(=O)oc2cc(S(=O)(=O)NCc3ccccc3)ccc21)c1ccccc1 (stereo not given) | 106 | 108
Cc1ccccc1CNC(=O)C1CCCN(c2nnc(-n3c(C)ccc3C)s2)C1 (stereo not given) | 104 | 105
Cc1ccc(Cn2c(C(=O)O)c(CNCc3ccccc3Cl)c3ccc(C)cc32)cc1 | 103 | 106
CCc1ccc(NC(=O)C(=O)NCC(c2cccnc2)N2CCN(Cc3ccccc3)CC2)cc1 (stereo not given) | 104 | 109
Cc1cc(C)cc(NC2=CC(c3cccc(F)c3)N(c3cc(C)cc(C)c3)C2=O)c1 (stereo not given) | 106 | 111
CCCCN(CCCC)c1nc(-c2ccccc2)nc2ccccc12 | 99 | 101
CCC(C(=O)N1CCN(c2ccccc2F)CC1)n1nc(C)c2sc3ccccc3c2c1=O (stereo not given) | 112 | 114
CCCOc1ccc(CNC(=O)CCCn2ncn3c(cc4sc(CC)cc43)c2=O)cc1 | 108 | 114
COc1ccc(CN2C(=O)C(NC(=O)c3cccc(C)c3)(C(F)(F)F)N=C2c2ccccc2)cc1 (stereo not given) | 109 | 111
CC1=C(c2ccc(F)cc2)S(=O)(=O)N=C1N1CCC(C(=O)NCCc2ccco2)CC1 | 102 | 99
Cc1ccc2c(=O)c(C(=O)c3ccccc3)cn(CC(=O)Nc3ccc4c(c3)OCCO4)c2n1 | 117 | 123
O=c1oc2ccccc2c(N2CCN(c3ccccc3F)CC2)c1CN1CCCC1 | 106 | 105
COc1cccc(CN2C(=O)c3ccccc3Sc3ccc(C(=O)NCCc4ccc(C)cc4)cc32)c1 | 112 | 114
CCN(Cc1ccccc1)C(=O)CN1C(=O)COc2ccc(S(=O)(=O)N3CCCCCC3)cc21 | 118 | 122
CCCOc1ccc(C(=O)N2CCC(c3nc4ccccc4s3)CC2)cc1 | 109 | 104
COc1ccc(CNc2nc(-c3ccco3)nn2S(=O)(=O)c2ccc(Cl)cc2)cc1OC | 103 | 107
Cc1ccc(S(=O)(=O)c2nc(-c3ccc(F)cc3)oc2N2CCN(c3ccccc3)CC2)cc1 | 106 | 105
CC(C)(C)C(=O)Nc1ccc(-c2nc3ccc(NC(=O)C(C)(C)C)cc3[nH]2)cc1 | 106 | 104
CCCCN(CC)C(=O)Cn1cc2c(n1)-c1c(oc(C(=O)N3CCCC3)c1C)CC2 | 107 | 112
CCC1CN(C(=O)N2CCC(C(=O)NCc3cc(OC)ccc3OC)CC2)c2ccccc2O1 (stereo not given) | 110 | 113
CCc1ccc(CNC(=O)c2ccc(Cn3c(=O)c4cccn4c4cccnc43)cc2)cc1 | 106 | 106
Cc1ccc2nc(/C(C#N)=C/c3ccc(-c4cccc(Cl)c4)o3)[nH]c2c1 | 84 | 233
O=C(c1ccc2c(c1)N(Cc1ccc(F)cc1)C(=O)c1ccccc1S2=O)N1CCC(Cc2ccccc2)CC1 (stereo not given) | 110 | 111
Cc1ccc(C)c(N2CCN(c3ncnc4c3nc3n4CCCCC3)CC2)c1 | 109 | 105
CCOc1ccccc1NC(=O)CSc1nnc2[nH]c(=O)cc(C)n12 | 111 | 93
COc1cc(Cl)c(C)cc1NC(=O)Cn1ncc2c1-c1cc(C)ccc1OC2 | 104 | 107
COc1ccc(CCCc2nnc(SCC(=O)Nc3ccc(C)cc3C)o2)cc1 | 106 | 107
O=S(=O)(Nc1cccc(C(F)(F)F)c1)c1ccc(NS(=O)(=O)c2ccc3c(c2)OCCO3)cc1 | 103 | 106
CCCCN(C)CCCNC(=O)Cn1ncc2c3ccccc3n(Cc3ccccc3)c2c1=O | 106 | 106
Cc1ccccc1NC(=O)CSc1nnc(-c2cccs2)o1 | 102 | 104
CCOC(=O)c1sc2ncn(CC(=O)Nc3ccc(OCC)cc3)c(=O)c2c1C | 105 | 111
Cc1ccc(S(=O)(=O)N(CCc2ccccc2)CC(=O)Nc2ccc(Br)cc2)cc1 | 102 | 104
CCCCNC(=O)CSc1nc2cc3c(cc2c(=O)n1CCCC(=O)NCCc1ccc(OC)c(OC)c1)OCO3 | 104 | 100
Cc1cn2c(=O)cc(COc3ccccc3NC(=O)c3ccc(C(C)(C)C)cc3)nc2s1 | 111 | 111
Cc1ccc(S(=O)(=O)N2CCCc3cc(NS(=O)(=O)c4ccc(C)c(C)c4)ccc32)cc1 | 108 | 114
CCOc1ccc(NC(=O)Cn2c(=O)n(-c3ccccc3)c(=O)c3c4c(sc32)CCCC4)cc1 | 107 | 110
CCC(CC)c1nn2c(=O)cc(COc3ccc(NC(=O)c4cccc(C)c4)cc3)nc2s1 | 115 | 109

Additional structures.
SMILES | PV pol inh | PV pol inh intensity
Cc1c(C(=O)OCc2ccccc2)[nH]c2c1C(=O)CC(c1ccc(Cl)cc1)C2 (stereo not given) | 107 | 112
COc1ccccc1Nc1c2c(nc3ccc(NC(=O)c4cccc(OC)c4OC)cc13)CCCC2 | 104 | 105
CNC(=O)C1CCC(Cn2c(=O)[nH]c3ccsc3c2=O)CC1 (stereo not given) | 108 | 110
O=[N+]([O-])c1cc(-c2nc(-c3ccncc3)no2)ccc1NCc1ccccc1 | 105 | 93
Cc1cccc(C)c1OCc1nc2c3cnn(-c4cccc(F)c4)c3ncn2n1 | 123 | 121
COc1ccc(CNC(=O)c2ccc(NC(=O)N3CCCCc4ccccc43)cc2)c(OC)c1 | 113 | 115
CSc1ccc(CCNS(=O)(=O)c2ccc3c(c2)C(C)(C)C(=O)N3C)cc1 | 110 | 116
O=C(Nc1ncc(Cc2ccc(Cl)cc2)s1)c1ccc2c(c1)CC(c1ccccc1)OC2=O (stereo not given) | 111 | 112
COc1ccccc1CNC(=O)c1ccc(N2CCCC2)c(NC(=O)NCc2ccc(F)cc2)c1 | 109 | 96
Cc1ccc(-n2ncc(C(=O)NCCN3CCC(Cc4ccccc4)CC3)c2C2CCN(C(=O)OC(C)(C)C)CC2)cc1 | 100 | 95
CCOC(=O)c1ccc(NC(=O)Cn2nc(SC)c(S(=O)(=O)c3ccc(Cl)cc3)c2N)cc1 | 109 | 111
CCOc1ccccc1NC(=O)c1ccc2c(c1)CCCN2S(C)(=O)=O | 105 | 104
Cc1ccc(CN(Cc2ccco2)C(=O)c2oc3c(C)c(C)ccc3c2C)cc1 | 109 | 112
Cc1ccc(S(=O)(=O)c2nc(-c3ccco3)oc2SC(C)c2ccccc2)cc1 (stereo not given) | 103 | 104
Cc1ccc(NC(=O)c2c(NC(=O)C(F)(F)F)sc3c2CCCCC3)cc1 | 98 | 98
O=c1c2cnn(-c3ccc(F)cc3)c2ncn1Cc1cccc(Cl)c1 | 113 | 114
O=C(Nc1nnc(S(=O)(=O)N2CCCCCC2)s1)c1ccccc1Br | 106 | 104
CCc1nn2c(=O)c(S(=O)(=O)Nc3ccc(C)cc3C)c(C)nc2s1 | 104 | 104
O=C(CCn1ccc2cc(S(=O)(=O)N3CCCC3)ccc21)NCc1ccccc1F | 115 | 120
CCN(CC)c1nn2c(=O)c(C(=O)NCc3ccc(OC)cc3OC)cnc2s1 | 106 | 114

No new results follow: entries from further up.
SMILES | PV pol inh | PV pol inh intensity
CCOc1ccccc1NC(=O)c1ccc2c(c1)CCCN2S(C)(=O)=O | 105 | 104
Cc1ccc(CN(Cc2ccco2)C(=O)c2oc3c(C)c(C)ccc3c2C)cc1 | 109 | 112
Cc1ccc(S(=O)(=O)c2nc(-c3ccco3)oc2SC(C)c2ccccc2)cc1 (stereo not given) | 103 | 104

The list continues.
SMILES | PV pol inh | PV pol inh intensity
CCOc1ccc(CCNC(=O)c2cc(=O)[nH]c3ccc(S(=O)(=O)N4CCCCC4)cc23)cc1OCC | 111 | 109
Cc1ccc(-n2ncc3c(=O)n(Cc4ccccc4C)cnc32)cc1C | 110 | 105
Cn1nc(-c2ccccc2F)c2cc(C(=O)NCc3ccccc3Cl)sc21 | 107 | 107
CC(=O)N1CCCC1c1nc2ccccc2n1Cc1ccc(F)cc1 (stereo not given) | 110 | 109
COc1ccccc1CNC(=O)CCn1cnc2ccccc2c1=O | 108 | 112
O=C(Cn1c(=O)n(-c2ccccc2)c(=O)c2c3c(sc21)CCCC3)Nc1ccc(F)cc1 | 108 | 111
Cc1cc(NC(=O)Cn2nc(C)n3cccc3c2=O)ccc1Br | 108 | 111
Cc1ccc(C)c(NC(=O)CSc2ncc(S(=O)(=O)c3ccc(C)c(Cl)c3)c(=O)[nH]2)c1 | 103 | 112
O=C(NCCc1ccc(Cl)cc1)C1CCN(c2ncnc3c2nc2n3CCCCC2)CC1 | 105 | 111

Filtered by structure: the compounds so far containing a Cl atom.
SMILES | PV pol inh | PV pol inh intensity
COc1ccccc1OCCCCn1c(-c2ccc(Cl)cc2)nc2ccccc2c1=O | 103 | 105
COc1ccccc1CNC(=O)c1cc2c(-c3ccc(Cl)cc3)nn(C)c2s1 | 102 | 99
O=C(Nc1ccc(F)cc1F)c1cc2nc(-c3ccco3)cc(C(F)(F)Cl)n2n1 | 103 | 97
COc1ccc(NC(=O)c2nn(C)c3c2CS(=O)(=O)c2ccccc2-3)cc1Cl | 104 | 103
O=C(Cn1cc(S(=O)(=O)Cc2ccccc2F)c2ccccc21)Nc1ccc(F)c(Cl)c1 | 108 | 114
Cc1c(-c2ccc(Cl)cc2)c(=O)oc2c(CN3CCOCC3)c(O)ccc12 | 106 | 106
COC(=O)c1cc2oc3ccccc3c2n1Cc1ccccc1Cl | 111 | 112
Cc1ccc(Cn2c(C(=O)O)c(CNCc3ccccc3Cl)c3ccc(C)cc32)cc1 | 103 | 106
COc1ccc(CNc2nc(-c3ccco3)nn2S(=O)(=O)c2ccc(Cl)cc2)cc1OC | 103 | 107
Cc1ccc2nc(/C(C#N)=C/c3ccc(-c4cccc(Cl)c4)o3)[nH]c2c1 | 84 | 233
COc1cc(Cl)c(C)cc1NC(=O)Cn1ncc2c1-c1cc(C)ccc1OC2 | 104 | 107
Cc1c(C(=O)OCc2ccccc2)[nH]c2c1C(=O)CC(c1ccc(Cl)cc1)C2 (stereo not given) | 107 | 112
O=C(Nc1ncc(Cc2ccc(Cl)cc2)s1)c1ccc2c(c1)CC(c1ccccc1)OC2=O (stereo not given) | 111 | 112
CCOC(=O)c1ccc(NC(=O)Cn2nc(SC)c(S(=O)(=O)c3ccc(Cl)cc3)c2N)cc1 | 109 | 111
O=c1c2cnn(-c3ccc(F)cc3)c2ncn1Cc1cccc(Cl)c1 | 113 | 114
Cn1nc(-c2ccccc2F)c2cc(C(=O)NCc3ccccc3Cl)sc21 | 107 | 107
Cc1ccc(C)c(NC(=O)CSc2ncc(S(=O)(=O)c3ccc(C)c(Cl)c3)c(=O)[nH]2)c1 | 103 | 112
O=C(NCCc1ccc(Cl)cc1)C1CCN(c2ncnc3c2nc2n3CCCCC2)CC1 | 105 | 111

Bioassay records from PubChem BioAssay.
